Six1-Eya2 blk = inhibitors of human Six1/Eya2 interaction | Q15475+O00167 | AlphaScreen GST-Six1/His-Eya2 binding, biochemical; stronger effect = lower value; control for the full effect not named in the record | activity change, % (concentration not given with the values) | 0.56% of 360,000 active; in the data active = activity change below about -65%; inconclusive = about -30% to -65%; inactive = above about -30%; note: % is set by controls: 0 for no effect and ±100 for the full control effect
Target sequence (O00167 whole entry, looked up): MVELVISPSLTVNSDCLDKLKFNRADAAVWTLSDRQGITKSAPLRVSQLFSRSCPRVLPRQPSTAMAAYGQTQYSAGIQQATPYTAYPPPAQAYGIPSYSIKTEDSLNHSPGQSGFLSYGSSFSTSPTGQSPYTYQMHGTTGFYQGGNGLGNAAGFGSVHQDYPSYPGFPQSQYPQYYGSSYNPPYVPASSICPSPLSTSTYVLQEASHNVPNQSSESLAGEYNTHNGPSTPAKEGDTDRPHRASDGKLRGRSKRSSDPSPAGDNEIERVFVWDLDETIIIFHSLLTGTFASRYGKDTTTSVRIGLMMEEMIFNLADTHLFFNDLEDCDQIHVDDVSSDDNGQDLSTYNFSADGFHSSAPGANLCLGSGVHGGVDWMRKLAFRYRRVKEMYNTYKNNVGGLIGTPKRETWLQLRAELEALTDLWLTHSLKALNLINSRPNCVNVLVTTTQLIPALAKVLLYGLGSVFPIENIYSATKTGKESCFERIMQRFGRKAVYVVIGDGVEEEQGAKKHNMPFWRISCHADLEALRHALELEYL
Target sequence (Q15475 whole entry, looked up): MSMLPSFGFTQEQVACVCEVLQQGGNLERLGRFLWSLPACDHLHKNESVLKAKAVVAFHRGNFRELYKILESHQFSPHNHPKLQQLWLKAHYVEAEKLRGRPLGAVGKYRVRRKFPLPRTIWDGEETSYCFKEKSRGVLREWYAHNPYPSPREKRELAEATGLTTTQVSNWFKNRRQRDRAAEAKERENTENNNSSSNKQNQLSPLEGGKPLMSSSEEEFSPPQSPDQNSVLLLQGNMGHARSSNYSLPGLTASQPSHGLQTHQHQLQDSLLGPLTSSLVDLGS
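GST-Six1 + His-Eya2 (5X stock: 250/500 nM); Tris pH 8.0, 300 mM NaCl, 0.05% BSA, 0.02% Tween 20; GSH donor/Ni acceptor beads; 1 h 37 °C dark; AlphaScreen readout.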
D2 agonist = activates the human D2 dopamine receptor; activation, % (test concentration not listed); P14416; DiscoveRx PathHunter D2 beta-arrestin, luminescence, 90 min; 100% = 57 uM dopamine signal; 0.084% of 360,000 active; in the data active = activation above about 40%; inconclusive = about 15% to 40%; inactive = below about 15%; note: compound concentration not given in the record; the text of the record calls up to 30% inactive
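DiscoveRx PathHunter D2 beta-arrestin cells (2,100/well) attached overnight, then compound-stimulated 90 min at 37 C in HBSS/10 mM HEPES/0.1% Tween-20 buffer; beta-galactosidase complementation read by luminescence after 1 h at ambient temperature. Dopamine 57 uM final (EC100) as control.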
PINK1 modulator = modulators of PINK1 expression. PINK1 immunofluorescence, high-content cytometry, 24 h. 0.2% of 410,000 active. Potency, µM (titrated, usually from 76.6 µM), without a hit: at the highest dose activation (PINK1 increase), actives largely listed as activators; active = well fitted activation curve with a large enough effect; inconclusive = small, poorly fitted or top-dose-only effect; inactive = flat fitted curve, though single readings scatter; cell line not stated here;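 note: potency is the fitted concentration of half-maximal effect; % of control where 0% means no effect; nearly all actives have a fitted effect of over 65% in size; a mitochondrial uncoupler was the plate control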
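Fluorescence from anti-PINK1 antibody, together with nuclear and cell stains, was scanned on a laser-scanning cytometer. Before staining, stable-line cells were incubated 24 hours with compounds at 5 concentrations; primary antibody 12 h at 10 degrees C.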
D2 potentiator = human D2 receptor positive allosteric modulation | 0.23% of 360,000 active | P14416 | potentiation, % (no concentration beside the values) | DiscoveRx D2 beta-arrestin cells, luminescence, 90 min; 100% = 57 uM dopamine signal; active = potentiation of 50% or more; inconclusive = 30% to 50%; inactive = 30% or less;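 note: compound concentration not given in the record; tested on top of an EC20 dose of dopamine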
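PathHunter D2 cells, attached overnight at 37 deg C, received compound in DMSO plus dopamine at EC20 (50 nM final) for 90 min at 37 deg C. Beta-arrestin recruitment was read as luminescence after 1 h with detection reagent at ambient temperature.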
CtBP-E1A inh = CtBP/E1A binding inhibition; AlphaScreen GST-E1A/His-CtBP binding, 1536-well; stronger effect = lower value; control for the full effect not named in the record; activity change, % (test concentration not listed); 0.49% of 340,000 active; in the data active means activity change below about -65%; inconclusive means about -30% to -65%; inactive means above about -30%; note: % is set by controls: 0 for no effect and ±100 for the full control effect; compound concentration not given in the record
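GST-E1A and His-tagged CtBP (125 nM each as 5X stock) were preincubated with pin-transferred compound for 2 h at 37 °C in the dark, then glutathione donor and nickel acceptor beads were added for 1 h before AlphaScreen reading.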
TRPV1 PAM = enhances activation of the human vanilloid receptor TRPV1; Q8NER1; AID 540277; TRPV1-expressing cells, Fluo-8 calcium influx, capsaicin EC20 potentiation; host cell line not named in the record; control for the full effect not named in the record; potentiation, % at 8.33 µM; 0.02% of 320,000 active; active means potentiation above 80%; inconclusive means 30% to 80%; inactive means below 30%; note: 0% is about no effect
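Cells expressing TRPV1 were dye-loaded with Fluo-8 and read kinetically: 10 s baseline, 3 min after compound (agonist portion), then 2 min after EC20 capsaicin (allosteric enhancer portion). Calcium-bound dye fluorescence at 480/520 nm.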
Sfp inh = blocks B. subtilis Sfp PPTase activity; Q9F4F7; Biochemical Sfp PPTase activity, qHTS; Potency, µM, without a hit: max response, negative = inhibition, actives largely listed as inhibitors; 3.5% of 310,000 active; AID 1490; active = well fitted inhibition curve with a large enough effect; inconclusive = small, poorly fitted or top-dose-only effect, or another doubt; inactive = no such curve, though single readings can be large or run the other way;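 note: the enzyme is Sfp with the accession as filed and its product quenches rhodamine fluorescence; potency is the fitted concentration of half-maximal effect; 0% = enzyme reaction without inhibitor and -100% = no enzyme wells; top concentration of the series not given in the record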
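With Hepes-Na pH 7.6 buffer containing 10 mM MgCl2, Sfp (15 nM) modified BHQ-2-YbbR (12.5 uM) using rhodamine-CoA (5 uM). Two reads 30 minutes apart at 525/598 nm yielded each well's rate.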
Starred values were filed as active, the others as inactive.

Results for O=C(O)CCC(=O)N1CCN(S(=O)(=O)c2cccs2)CC1 ?
Six1-Eya2 blk: 1; D2 agonist: -4.5; PINK1 modulator: 3.5%; D2 potentiator: 14; CtBP-E1A inh: 14; TRPV1 PAM: -4; Sfp inh: 8%

Results for Cc1cccc(CC2CC(=O)N(c3ccc(C)cc3Br)C2=O)c1 (stereo unspecified) ?
Six1-Eya2 blk: 6; D2 agonist: 1.3; PINK1 modulator: 0.1%; D2 potentiator: -2; CtBP-E1A inh: 10; TRPV1 PAM: -8; Sfp inh: 4%

What do the screens show for `Cc1csc(NC(=O)CSC2=NS(=O)(=O)c3ccccc3N2)n1`?
Six1-Eya2 blk: 7; D2 agonist: -3.6; PINK1 modulator: 1.8%; D2 potentiator: -16; CtBP-E1A inh: -1; TRPV1 PAM: 8

How did O=C(COc1ccccc1Cl)N1CCCCCCC1 do in these assays?
Six1-Eya2 blk: -12; D2 agonist: -2.3; PINK1 modulator: 1.3%; D2 potentiator: -6; CtBP-E1A inh: 2; TRPV1 PAM: -5; Sfp inh: 24%

Results for O=c1c(-c2ccco2)[n+]([O-])c2ccccc2n1OCc1ccccn1 ?
Six1-Eya2 blk: 1; D2 agonist: -2.0; PINK1 modulator: 1.4%; D2 potentiator: 12; CtBP-E1A inh: 0; TRPV1 PAM: -5; Sfp inh: -6%

What do the screens show for `CCCCNCCOc1ccccc1-c1ccccc1`?
Six1-Eya2 blk: 8; D2 agonist: -7.3; PINK1 modulator: inconclusive; D2 potentiator: -31; CtBP-E1A inh: 7; TRPV1 PAM: inconclusive; Sfp inh: -3%

Results for Cc1ccc(C)c(NC(=S)NC(=O)c2cncc(Br)c2)c1 ?
Six1-Eya2 blk: -16; D2 agonist: -4.9; PINK1 modulator: 0.3%; D2 potentiator: -18; CtBP-E1A inh: -11

What do the screens show for `CC1=NN(S(=O)(=O)c2ccc(F)cc2)C(=O)c2ccccc2O1`?
Six1-Eya2 blk: 22; D2 agonist: -3.9; PINK1 modulator: 0.8%; D2 potentiator: -30; CtBP-E1A inh: 2; TRPV1 PAM: -5; Sfp inh: 13%

Results for C=CCn1c(-c2cccnc2Cl)nc2ccccc21 ?
Six1-Eya2 blk: -15; D2 agonist: -0.5; PINK1 modulator: -0.9%; D2 potentiator: -4; CtBP-E1A inh: -17; TRPV1 PAM: -21; Sfp inh: 12%

How did Cc1cccc(N2CCN(CC3CCCCC3)CC2)c1C do in these assays?
Six1-Eya2 blk: 0; D2 agonist: -3.9; PINK1 modulator: 17%; D2 potentiator: -5; CtBP-E1A inh: 3; TRPV1 PAM: -4; Sfp inh: 5%

Results for CCC1=NN(C(=O)c2ccccc2[N+](=O)[O-])C(O)(c2ccccc2)C1 (stereo unspecified) ?
Six1-Eya2 blk: -4; D2 agonist: -8.6; PINK1 modulator: 1.3%; D2 potentiator: -12; CtBP-E1A inh: 3

Results for COc1ccc(S(=O)(=O)N2CCOCC2)cc1NC(=O)C1CCCN1C(=O)c1cccs1 (stereo unspecified) ?
Six1-Eya2 blk: 19; D2 agonist: -1.8; PINK1 modulator: -0.6%; D2 potentiator: -3; TRPV1 PAM: 14

Results for O=C(Nc1cccc(S(=O)(=O)N2CCCCC2)c1)C1CC(=O)N(Cc2ccccc2)C1 (stereo unspecified) ?
Six1-Eya2 blk: -2; D2 agonist: 3.6; PINK1 modulator: -1.6%; D2 potentiator: 0; CtBP-E1A inh: -4; TRPV1 PAM: 6

What do the screens show for `CC(C)Cn1c(SCC(=O)NCc2ccco2)nnc1-c1ccncc1`?
Six1-Eya2 blk: -5; D2 agonist: 6.6; PINK1 modulator: 1.1%; D2 potentiator: 5; CtBP-E1A inh: 2; TRPV1 PAM: 4; Sfp inh: -12%

What do the screens show for `CCOc1ccc(CCNC(=O)COC(=O)C2CCN(S(=O)(=O)c3ccccc3)CC2)cc1OCC`?
Six1-Eya2 blk: -1; D2 agonist: -2.1; PINK1 modulator: -0.8%; D2 potentiator: -2; CtBP-E1A inh: 2

Results for Cc1cccc(CCNC(=O)C2CC(O)CN2C(=O)Nc2ccccc2)c1 (stereo unspecified) ?
Six1-Eya2 blk: 19; D2 agonist: -1.4; PINK1 modulator: 0.9%; D2 potentiator: -11; CtBP-E1A inh: -11

What do the screens show for `CC1(C)CC(=O)C([N+](=O)[O-])=C(NCCCC(=O)O)C1`?
Six1-Eya2 blk: 3; D2 agonist: -1.4; PINK1 modulator: 2.5%; D2 potentiator: -8; CtBP-E1A inh: -6; TRPV1 PAM: -9; Sfp inh: inconclusive

How did COc1cccc(CN(C)C(=O)CNC(=O)c2cccs2)c1OC do in these assays?
Six1-Eya2 blk: 0; D2 agonist: -7.0; PINK1 modulator: 1.7%; D2 potentiator: 0; CtBP-E1A inh: 11; TRPV1 PAM: 11

Results for COc1ccccc1CNC(=O)CN1CCN(c2ccc(C(C)=O)cc2)CC1 ?
Six1-Eya2 blk: 2; D2 agonist: 3.4; PINK1 modulator: 1.6%; D2 potentiator: -1; CtBP-E1A inh: -14; TRPV1 PAM: -23; Sfp inh: 8%

What do the screens show for `COC(=O)C1=C(C)N(CCCC(=O)O)C(=O)NC1c1ccc2c(c1)OCO2` (stereo unspecified)?
Six1-Eya2 blk: 0; D2 agonist: -5.0; PINK1 modulator: 0.6%; D2 potentiator: -12; CtBP-E1A inh: 7

Results for COc1ccc(C2(CO)OC(CO)C(O)C2O)cc1 (stereo unspecified) ?
Six1-Eya2 blk: 6; D2 agonist: -3.0; PINK1 modulator: -3.4%; D2 potentiator: 3; CtBP-E1A inh: 0

What do the screens show for `O=C(NCCOC(=O)c1cccs1)c1cccnc1`?
Six1-Eya2 blk: 5; D2 agonist: -0.6; PINK1 modulator: -1.7%; D2 potentiator: -2; CtBP-E1A inh: -1; TRPV1 PAM: -1; Sfp inh: 15%

How did Cc1cccc(NC(=O)Cn2nc([N+](=O)[O-])c(Br)c2C)n1 do in these assays?
Six1-Eya2 blk: -4; D2 agonist: -2.9; PINK1 modulator: 1.9%; D2 potentiator: 8; CtBP-E1A inh: 4; TRPV1 PAM: 26; Sfp inh: 10%

What do the screens show for `NNC(=O)/C(=C\c1cccs1)NC(=O)c1ccccc1`?
Six1-Eya2 blk: -5; D2 agonist: -3.6; PINK1 modulator: 4.5%; D2 potentiator: -22; CtBP-E1A inh: 7; TRPV1 PAM: 2; Sfp inh: 10%

Next section; it opens with the two that closed the last part.
How did Cc1cccc(NC(=O)Cn2nc([N+](=O)[O-])c(Br)c2C)n1 do in these assays?
Six1-Eya2 blk: -4; D2 agonist: -2.9; PINK1 modulator: 1.9%; D2 potentiator: 8; CtBP-E1A inh: 4; TRPV1 PAM: 26; Sfp inh: 10%

What do the screens show for `NNC(=O)/C(=C\c1cccs1)NC(=O)c1ccccc1`?
Six1-Eya2 blk: -5; D2 agonist: -3.6; PINK1 modulator: 4.5%; D2 potentiator: -22; CtBP-E1A inh: 7; TRPV1 PAM: 2; Sfp inh: 10%

Results for O=C(CCCn1c(=S)[nH]c2cc3c(cc2c1=O)OCO3)N1CCc2ccccc2C1 ?
Six1-Eya2 blk: -3; D2 agonist: -2.1; PINK1 modulator: -1.4%; D2 potentiator: -9; CtBP-E1A inh: 4; TRPV1 PAM: -18; Sfp inh: 20%

Results for CCOC(=O)CSc1nnc(NC(=O)c2cc([N+](=O)[O-])cc([N+](=O)[O-])c2)s1 ?
Six1-Eya2 blk: 4; D2 agonist: 9.2; PINK1 modulator: 11%; D2 potentiator: 63*; CtBP-E1A inh: -24; TRPV1 PAM: -5; Sfp inh: -5%

Results for Cc1nc(SCC(=O)N2CCOCC2)c2c(=O)n(C)c(=O)n(CC(C)C)c2n1 ?
Six1-Eya2 blk: 2; D2 agonist: -1.5; PINK1 modulator: 0.9%; D2 potentiator: -7; CtBP-E1A inh: 7

What do the screens show for `Cc1cc(F)ccc1NCC(=O)Nc1ccccc1Br`?
Six1-Eya2 blk: 0; D2 agonist: 1.7; PINK1 modulator: 1.9%; D2 potentiator: -10; CtBP-E1A inh: -8; TRPV1 PAM: 10; Sfp inh: inconclusive

What do the screens show for `CC(Nc1ccc([N+](=O)[O-])cc1[N+](=O)[O-])c1ccccc1` (stereo unspecified)?
Six1-Eya2 blk: inconclusive; D2 agonist: -0.1; PINK1 modulator: 0.2%; D2 potentiator: -12; CtBP-E1A inh: -3

What do the screens show for `CCOc1ccccc1C=C1CCc2ccccc2C1=O`?
Six1-Eya2 blk: 5; D2 agonist: -6.3; PINK1 modulator: 3.9%; D2 potentiator: -13; CtBP-E1A inh: -7

Results for CCc1cccc2c1NC(=O)[C@]21[C@@H]2C(=O)N(Cc3ccccc3)C(=O)[C@@H]2[C@@H]2CCCN21 ?
Six1-Eya2 blk: -4; D2 agonist: 1.9; PINK1 modulator: -2.0%; D2 potentiator: -8; CtBP-E1A inh: -4; TRPV1 PAM: -1; Sfp inh: 1%

How did C#CCN(CC=C)C(=O)C1CCC(=O)N(CCCc2ccccc2)C1 (stereo unspecified) do in these assays?
Six1-Eya2 blk: -5; D2 agonist: -3.0; PINK1 modulator: 1.8%; D2 potentiator: -1; CtBP-E1A inh: 7; TRPV1 PAM: -3; Sfp inh: 9%

What do the screens show for `NC(=S)N=Nc1c(O)[nH]c2c(Cl)cc(Cl)cc12`?
Six1-Eya2 blk: inconclusive; D2 agonist: -7.0; PINK1 modulator: 4.3%; D2 potentiator: -16; CtBP-E1A inh: inconclusive

Results for CCOc1ccc(NC(=O)N(Cc2ccc(C)cc2)Cc2ccccn2)cc1 ?
Six1-Eya2 blk: -7; D2 agonist: 5.7; PINK1 modulator: 0.2%; D2 potentiator: -12; TRPV1 PAM: -27; Sfp inh: 2%

What do the screens show for `Cc1cc(C(=O)N2CC=C(c3ccccc3)CC2)c2ccccc2n1`?
Six1-Eya2 blk: 0; D2 agonist: -4.4; PINK1 modulator: -0.5%; D2 potentiator: -13; CtBP-E1A inh: 0; TRPV1 PAM: 3

What do the screens show for `Cc1ccc(C)c(OCC(=O)Nc2ccc(S(=O)(=O)Nc3ncccn3)cc2)c1`?
Six1-Eya2 blk: -2; D2 agonist: -0.3; PINK1 modulator: 2.2%; D2 potentiator: 0; CtBP-E1A inh: -8; TRPV1 PAM: 6; Sfp inh: -5%

Results for CC(NC(=O)CNC(=O)C(Cc1ccccc1)NC(=O)OCc1ccccc1)C(N)=O (stereo unspecified) ?
Six1-Eya2 blk: 1; D2 agonist: -6.4; PINK1 modulator: 0.5%; D2 potentiator: -5; TRPV1 PAM: 4; Sfp inh: 18%

Assay outcomes from PubChem BioAssay.

No enrichment for hits. Share with any hit: about 3.7%.
